D2 agonist – agonists of human D2 dopamine receptor (beta-arrestin) | DiscoveRx PathHunter D2 beta-arrestin, luminescence, 90 min; 100% = 57 uM dopamine signal | activation, % (no concentration beside the values) | 360,000 tested, 0.084% active | AID 624465; in the data active = activation above about 40%; inconclusive = about 15% to 40%; inactive = below about 15%; also: compound concentration not given in the record; the text of the record calls up to 30% inactive
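Agonist mode: compounds alone added to overnight-plated D2 PathHunter cells for 90 min at 37 C, with 57 uM final dopamine (EC100) defining full response. Beta-arrestin recruitment detected by chemiluminescent reagent, read after 1 h at ambient temperature.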
gsp antagonist – antagonists of gsp mutant (McCune-Albright syndrome). gsp-mutant cells, cAMP HTRF, 30 min; control for the full effect not named in the record. Potency, µM (doses to about 76.9 µM), for inactives: at the top dose activity change, negative = inhibition, actives largely listed as inhibitors. 340,000 tested, 0.4% active; active = falling curve of any shape with a large fitted effect; inconclusive = falling curve, mostly with a smaller effect; inactive = flat or rising curve; cell line not stated here;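 also: intracellular cAMP measured with PDE inhibitor Ro 20-1724 present during compound exposure; potency is read from the fitted curve at half-maximal effect; % is scaled to controls: 0 for no effect and ±100 for the full control effect; nearly all actives have a fitted effect of over 65% in size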
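Measurement of cellular cAMP by homogeneous time-resolved fluorescence following a 30 min compound exposure at 37C. The PDE inhibitor […] was present throughout; the assay buffer was DPBS with 0.05% BSA and 0.005% Tween 20.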
D2 potentiator – human D2 receptor positive allosteric modulation; P14416; DiscoveRx D2 beta-arrestin cells, luminescence, 90 min; 100% = 57 uM dopamine signal; potentiation, % (concentration not given with the values); 360,000 tested, 0.23% active; active = potentiation of 50% or more; inconclusive = 30% to 50%; inactive = 30% or less;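 also: compound concentration not given in the record; tested on top of an EC20 dose of dopamine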
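PathHunter beta-arrestin assay in DiscoveRx D2 cells. Compounds were added with an EC20 of dopamine (50 nM final) for 90 min at 37 deg C. Luminescence was read 1 h after detection reagent, with 57 uM dopamine as the EC100 control.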
CtBP-E1A inh – inhibitors of CtBP/E1A interaction. AlphaScreen GST-E1A/His-CtBP binding, 1536-well; active compounds read low; control for the full effect not named in the record. activity change, % (concentration not given with the values). 340,000 tested, 0.49% active. AID 651724; in the data active means activity change below about -65%; inconclusive means about -30% to -65%; inactive means above about -30%; also: % is scaled to controls: 0 for no effect and ±100 for the full control effect
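Steps: dispense buffer (Tris pH 8.0, NaCl 300 mM, TCEP 1 mM, BSA, Tween 20); add 5X protein mix (GST-E1A, His-CtBP, 125 nM each); pin 23 nL compound; 2 h at 37 °C, dark; add 5X beads (50 ug/mL); 1 h; read.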
Six1-Eya2 blk – Six1/Eya2 interaction inhibition | Q15475+O00167 | AlphaScreen GST-Six1/His-Eya2 binding, biochemical; active compounds read low; control for the full effect not named in the record | activity change, % (concentration not given with the values) | 360,000 tested, 0.56% active | AID 651725; in the data active = activity change below about -65%; inconclusive = about -30% to -65%; inactive = above about -30%; also: % is scaled to controls: 0 for no effect and ±100 for the full control effect
Target sequence (O00167 whole entry, looked up): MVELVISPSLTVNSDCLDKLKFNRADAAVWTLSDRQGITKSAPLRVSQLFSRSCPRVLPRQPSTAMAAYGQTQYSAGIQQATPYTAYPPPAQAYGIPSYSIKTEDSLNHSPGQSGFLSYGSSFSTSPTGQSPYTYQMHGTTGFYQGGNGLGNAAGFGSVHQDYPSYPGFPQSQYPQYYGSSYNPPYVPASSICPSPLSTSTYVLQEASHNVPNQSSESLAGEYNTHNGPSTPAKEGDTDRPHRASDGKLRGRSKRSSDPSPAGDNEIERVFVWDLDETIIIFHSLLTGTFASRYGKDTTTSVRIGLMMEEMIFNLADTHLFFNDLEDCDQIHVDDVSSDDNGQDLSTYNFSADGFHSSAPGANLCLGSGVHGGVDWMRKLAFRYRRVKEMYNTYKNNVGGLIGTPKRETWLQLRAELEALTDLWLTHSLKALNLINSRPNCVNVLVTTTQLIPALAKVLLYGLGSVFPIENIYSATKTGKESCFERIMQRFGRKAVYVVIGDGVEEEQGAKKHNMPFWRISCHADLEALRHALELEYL
Target sequence (Q15475 whole entry, looked up): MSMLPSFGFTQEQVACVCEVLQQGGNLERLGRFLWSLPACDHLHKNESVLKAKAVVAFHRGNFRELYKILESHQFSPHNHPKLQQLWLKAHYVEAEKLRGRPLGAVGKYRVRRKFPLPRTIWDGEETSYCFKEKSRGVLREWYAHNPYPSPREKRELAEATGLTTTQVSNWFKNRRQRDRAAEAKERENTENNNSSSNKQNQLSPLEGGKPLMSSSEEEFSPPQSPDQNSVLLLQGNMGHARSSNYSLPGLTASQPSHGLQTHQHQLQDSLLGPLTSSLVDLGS
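AlphaScreen luminescence read after one hour at 37 °C in darkness. Pin-transferred compounds met GST-Six1 and His-Eya2 protein (5X stock 250 nM/500 nM) plus glutathione donor and Ni-chelate acceptor beads (5X, 50 ug/mL).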
gsp ag – agonists of gsp mutant (McCune-Albright syndrome) | gsp mutant cells, cAMP HTRF, 30 min; control for the full effect not named in the record | Potency, µM (series often up to 76.9 µM), for the others: top-dose activation (cAMP increase), actives largely listed as activators | 340,000 tested, 0.13% active | AID 624287; active = well fitted activation curve with a large enough effect; inconclusive = small, poorly fitted or top-dose-only effect, or another doubt; inactive = no such curve, though single readings can be large or run the other way; cell line not stated here;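 also: phosphodiesterase inhibitor Ro 20-1724 added with compounds to block cAMP breakdown; potency is read from the fitted curve at half-maximal effect; nearly all actives have a fitted effect of over 60% in size; about a fifth of the inactives were tested at one dose only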
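Cells stably selected in G418 were plated at 2000/well, grown 16-24 hr, then given compounds in DMSO with the PDE inhibitor […] (300 uM solution added) for 30 min at 37C; cAMP was read by HTRF.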
* marks the source's active call; other numbers are inactive results; ? = inconclusive; / = no result given; & = joins results of further samples; [ ] = dose if it differs, or a comment. Compounds were not picked by outcome; any-hit rate near 1.4%.

Start of the data: the first five compounds as a preview:
item	smiles	D2 agonist	gsp antagonist	D2 potentiator	CtBP-E1A inh	Six1-Eya2 blk	gsp ag
1	CCN1CCCC1CNCc1ccc(OCc2ccc(Cl)nc2)c(OC)c1 (centres undefined)	0.4	14%	-11	-7	0	7%[15.4 µM]
2	CCOc1cc(NS(=O)(=O)c2ccccc2)c(OCC)cc1NC(=O)c1ccco1	5.2	-7%	10	-9	-11	10%
3	CCOc1ccccc1N1CCN(C(=O)c2cc(-c3cc(OC)ccc3OC)nc3ccccc23)CC1	-4.0	14µM*	3	-25	?	23%
4	Clc1ccc2nc(CSc3ncn[nH]3)cn2c1	-12	3%	-15	3	-8	7%[15.4 µM]
5	O=C(Nc1ccc(S(=O)(=O)Nc2cnc3ccccc3n2)cc1)c1ccc(Cl)cc1Cl	-1.8	?	0	-5	-14	-90%[inhibitor]

The listing, from the start:
item	smiles	D2 agonist	gsp antagonist	D2 potentiator	CtBP-E1A inh	Six1-Eya2 blk	gsp ag
1	CCN1CCCC1CNCc1ccc(OCc2ccc(Cl)nc2)c(OC)c1 (centres undefined)	0.4	14%	-11	-7	0	7%[15.4 µM]
2	CCOc1cc(NS(=O)(=O)c2ccccc2)c(OCC)cc1NC(=O)c1ccco1	5.2	-7%	10	-9	-11	10%
3	CCOc1ccccc1N1CCN(C(=O)c2cc(-c3cc(OC)ccc3OC)nc3ccccc23)CC1	-4.0	14µM*	3	-25	?	23%
4	Clc1ccc2nc(CSc3ncn[nH]3)cn2c1	-12	3%	-15	3	-8	7%[15.4 µM]
5	O=C(Nc1ccc(S(=O)(=O)Nc2cnc3ccccc3n2)cc1)c1ccc(Cl)cc1Cl	-1.8	?	0	-5	-14	-90%[inhibitor]
6	O=C1CSC(=Nc2cccc(Cl)c2Cl)N1Cc1cccnc1	-6.7	-7%	-5	2	-1	-3%[15.4 µM]
7	O=C(Cc1ccc(Cl)cc1)Nc1cccc(S(=O)(=O)Nc2ccccc2F)c1	5.5	?	10	-6	-2	-5%
8	O=C(COc1cccc2ccccc12)NNC(=O)c1cccs1	-3.0	-9%	-6	-2	-7	-6%
9	CN1CCN(C(=O)c2cc(Cl)ccc2Cl)CC1	-2.2	1%	-5	10	7	-6%
10	CN(CC(=O)NCc1ccccc1)S(=O)(=O)c1ccc2c(c1)CCC(=O)N2	2.0	13%	-8	-12	3	26%
11	CCC1CCCCN1C(=O)CCCOc1ccccc1 (centres undefined)	1.2	-1%	-8	4	0	-4%
12	CC(C#N)(NC(=O)CN1CCN(S(=O)(=O)c2cccc(F)c2)CC1)C1CC1 (centres undefined)	-2.0	/	1	-1	5	-5%
13	CC(C)CNS(=O)(=O)c1ccc(CCC(=O)NCC2CCCO2)cc1 (centres undefined)	-3.9	10%	-9	-2	-1	2%
14	O=C(c1cccc(S(=O)(=O)NCc2ccccc2)c1)N1CCN(c2ccc(F)cc2)CC1	4.8	-16%	10	-3	-11	-1%
15	COc1ccc(S(=O)(=O)N2CCCC2CNC(=O)C(=O)NCc2ccco2)cc1 (centres undefined)	-3.5	-2%	-6	4	-8	-4%[15.4 µM]
16	Cc1sc(NC(=O)c2ccco2)nc1-c1ccc2c(c1)CC(C)N2C(=O)C1CC1 (centres undefined)	6.1	?	?	-16	-10	?
17	COCC(C)N1C(=O)Cc2c1nc(N)c1c(N)nc(N3CCN(c4ccccc4F)CC3)c(C#N)c21 (centres undefined)	5.0	-14%	-6	-23	-26	?
18	c1ccc2c(c1)nc1n2CN(Cc2ccc3c(c2)OCO3)CN1	-1.1	7%	4	2	-1	12%
19	O=C(C1CC(=O)N(C2CCCC2)C1)N1CCN(c2cccc(Cl)c2)CC1 (centres undefined)	-1.8	?	9	12	0	?
20	Cc1cc(C(=O)CS(=O)(=O)c2ccccc2)cc(C)c1O	-2.0	-2%	4	12	1	-10%

Single records, from the list above. Order of screens: D2 agonist | gsp antagonist | D2 potentiator | CtBP-E1A inh | Six1-Eya2 blk | gsp ag
COCC(C)N1C(=O)Cc2c1nc(N)c1c(N)nc(N3CCN(c4ccccc4F)CC3)c(C#N)c21 (centres undefined) is listed as 5.0 | -14% | -6 | -23 | -26 | ?
Clc1ccc2nc(CSc3ncn[nH]3)cn2c1 is listed as -12 | 3% | -15 | 3 | -8 | 7%[15.4 µM]

(continued)
item	smiles	D2 agonist	gsp antagonist	D2 potentiator	CtBP-E1A inh	Six1-Eya2 blk	gsp ag
21	CC(C)(C)NC(=O)C(=O)NCCC1=CCCCC1	-2.1	6%	-4	12	11	12%
22	CC1=CC(C)(C)N=C(Nc2ccc(C)cc2)S1	-3.3	-6%	-24	102	3	-3%
23	Nc1cc(Nc2ccccc2)ccn1	-2.6	5%	-2	-2	-4	-11%[15.4 µM]
24	CC(=O)Nc1nc(=S)ss1	-1.9	12%	0	7	5	-36%[inhibitor]
25	O=C(O)c1cc(NC(=O)c2cccc(N3C(=O)c4ccccc4C3=O)c2)cc(C(=O)O)c1	-6.4	7%	-2	-4	-3	?
26	CN(C)c1ccc(NC(=O)CSc2nnc(-c3ccco3)c(-c3ccco3)n2)cc1	-4.3	-12%	-10	?	?	2%[15.4 µM]
27	O=C1C(C=NCCCN2CCCC2=O)=C(O)c2ccccc21	-1.2	0%	5	5	-3	5%
28	O=C(CCc1ccc(S(=O)(=O)N2CCOCC2)cc1)N1CCc2ccccc2C1	-1.9	-4%	-5	10	13	-17%[15.4 µM]
29	Cc1cc(C)n(S(=O)(=O)c2ccc3oc(=O)ccc3c2)n1	-4.3	-6%	-4	-7	-15	7%
30	CCC(C)Sc1ccc(-c2nc3cnccn3c2NC2CCCCC2)cc1 (centres undefined)	-4.9	-8%	-13	9&5	19&50	/
31	Cc1ccccc1NC(=O)C1CC(=O)n2ncnc2N1 (centres undefined)	-2.1	-11%	-2	5	0	-10%
32	O=C(c1nnc(-c2ccccc2)o1)C1CC1	-1.4	4%	0	1	-4	20%
33	CCOc1cc(CNCc2ccncc2)cc(Br)c1OCc1ccccc1F	0.0	-25%	14	1	-6	-8%
34	COc1ccccc1N1CCN(C(=O)CSc2nc(-c3ccccc3)cc(=O)[nH]2)CC1	-0.8	-14%	-17	3	0	1%
35	O=C(Cc1ccccc1)N/N=C/c1cc(Br)cs1	3.6	17%	-8	2	-3	5%[15.4 µM]
36	CCn1c(SCCN2CCCCC2)nc2c1c(=O)n(C)c(=O)n2C	-3.9	13%	-8	3	-5	?
37	CC(=O)c1cccc(S(=O)(=O)NC(C)C2CC3CCC2C3)c1 (centres undefined)	-4.6	6%	-1	6	7	-8%[15.4 µM]
38	C=CCNC(=O)COC(=O)c1ccc(C)c(NC(=O)c2ccco2)c1	4.1	/	9	-2	0	-7%[15.4 µM]
39	O=C(CNC(=O)c1ccc(Br)o1)NCC1CCCCC1	-3.2	-4%	-21	/	7	-2%
40	Cc1noc(C)c1COC(=O)c1cccc(N(C)C)c1	2.8	6%	-5	2	2	16%[15.4 µM]
41	C[C@@H]1COC(=O)[C@@H](Cc2ccc(F)cc2)C/C=C\C[C@@H](CC(=O)N(CCO)Cc2ccccc2)C(=O)N1	-2.5	-11%	-10	3	6	/
42	COc1ccccc1N1CCN(c2ccc3ccccc3n2)CC1	-1.8	-12%	-6	8	20	11%[15.4 µM]
43	CCOC(=O)N1CCN(C(=O)CSCc2ccc(Br)cc2)CC1	4.5	-38%	-1	3	0	-11%[15.4 µM]
44	CN1CCc2c(n(CC(O)CN3C(=O)c4ccccc4S3(=O)=O)c3ccccc23)C1=O (centres undefined)	-3.7	4%	-5	-4	0	-6%
45	Cc1ccc(S(=O)(=O)NC(CC(C)C)C(=O)N2CCOCCOCCOCC2)cc1 (centres undefined)	-5.8	-8%	-1	7	4	2%[15.4 µM]
46	CS(=O)(=O)N1CCC(C(=O)O)CC1	0.1	7%	-5	2	3	-13%
47	CC(NC(=O)c1ccccc1)C(=O)Nc1ccccc1 (centres undefined)	-0.1	13%	18	4	-1	-5%
48	COc1ccc(S(=O)(=O)n2nc(OC(C)=O)cc2N(C(C)=O)C(C)=O)cc1	-1.4	5%	-1	2	-2	28%
49	NS(=O)(=O)c1ccc(Sc2ccccn2)c([N+](=O)[O-])c1	2.5	0%	9	2	4	2%[15.4 µM]
50	Cc1ccc(NC(=O)NCCCN2CCCC2=O)cc1C	3.9	7%	-4	2	0	23%
51	Cc1ccccc1S(=O)(=O)N1C[C@H]2CON(C)[C@H]2C[C@H]1c1cccc(-c2ccccc2)c1	1.1	-10%	-1	-7	-14	/
52	COc1cccc(C(=O)NCCS(=O)(=O)N2CCC(C)CC2)c1	-2.3	6%	-3	4	5	-60%[inhibitor]
53	CC(=O)NCc1ccc(C(=O)CN2C(=O)NC3(CCCCC3C)C2=O)s1 (centres undefined)	-1.1	2%	14	1	-7	9%[15.4 µM]
54	O=C(CSCc1ccc(Br)cc1)NC1CC1	-1.2	0%	1	6	0	-10%
55	Nc1cc(-c2ccc(OC(F)(F)F)cc2)nn1-c1ccc(Cl)c(Cl)c1	-5.3	-30%	5	4	-11	-10%[15.4 µM]
56	COc1cccc(CCNC(=O)CCc2nnc(-c3cc(C)oc3C)o2)c1	-0.2	4%	-11	-7	-4	26%

Records 49 through 50, reprinted for reference:
item	smiles	D2 agonist	gsp antagonist	D2 potentiator	CtBP-E1A inh	Six1-Eya2 blk	gsp ag
49	NS(=O)(=O)c1ccc(Sc2ccccn2)c([N+](=O)[O-])c1	2.5	0%	9	2	4	2%[15.4 µM]
50	Cc1ccc(NC(=O)NCCCN2CCCC2=O)cc1C	3.9	7%	-4	2	0	23%
